# Screening results as filed in PubChem BioAssay.
# TRPML1 ag – activates the human TRPML1 channel. Q9GZU1. TRPML1-expressing cells, Ca2+ dye fluorescence, FDSS; host cell line not named in the record; reference of the full effect not given here. activation, % (test concentration not listed). 0.12% of 410,000 active. AID 624414; in the data active = activation above about 50%; inconclusive = about 30% to 50%; inactive = below about 30%; note: 0% is about no effect; the text of the record puts the active cut at 80%
# Target sequence (Q9GZU1 whole entry, looked up): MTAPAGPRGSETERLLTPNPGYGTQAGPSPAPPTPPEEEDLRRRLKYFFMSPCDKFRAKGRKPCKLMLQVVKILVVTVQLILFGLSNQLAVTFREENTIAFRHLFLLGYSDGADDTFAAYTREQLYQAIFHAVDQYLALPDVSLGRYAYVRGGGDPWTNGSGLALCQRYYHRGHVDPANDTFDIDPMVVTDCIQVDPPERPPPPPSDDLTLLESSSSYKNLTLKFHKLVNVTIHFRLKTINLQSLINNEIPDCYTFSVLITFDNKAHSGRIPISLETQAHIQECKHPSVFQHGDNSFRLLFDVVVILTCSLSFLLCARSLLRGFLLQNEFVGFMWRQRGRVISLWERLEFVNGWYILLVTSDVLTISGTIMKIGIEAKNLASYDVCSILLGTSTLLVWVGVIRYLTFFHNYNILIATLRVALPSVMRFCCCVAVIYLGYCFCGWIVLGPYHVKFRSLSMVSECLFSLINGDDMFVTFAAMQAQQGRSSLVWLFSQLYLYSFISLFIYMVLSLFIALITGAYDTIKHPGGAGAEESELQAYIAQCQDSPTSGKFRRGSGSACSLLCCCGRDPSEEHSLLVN
#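 TRPML1-DL cells, Tet-induced overnight (~16 h, 37 degrees C), loaded 45-90 min at room temperature with Ca8 no-wash calcium dye plus quencher. FDSS fluorescence: 10 s baseline, compound pin-transfer, 110 s agonist read, then EC80 54-4 (4uM final) and 110 s antagonist read.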
# D2 agonist – activates the human D2 dopamine receptor. AID 624465. activation, % (no concentration beside the values). 0.084% of 360,000 active. DiscoveRx PathHunter D2 beta-arrestin, luminescence, 90 min; 100% = 57 uM dopamine signal. P14416; in the data active = activation above about 40%; inconclusive = about 15% to 40%; inactive = below about 15%; note: compound concentration not given in the record; the text of the record calls up to 30% inactive
# Target sequence (P14416 whole entry, looked up): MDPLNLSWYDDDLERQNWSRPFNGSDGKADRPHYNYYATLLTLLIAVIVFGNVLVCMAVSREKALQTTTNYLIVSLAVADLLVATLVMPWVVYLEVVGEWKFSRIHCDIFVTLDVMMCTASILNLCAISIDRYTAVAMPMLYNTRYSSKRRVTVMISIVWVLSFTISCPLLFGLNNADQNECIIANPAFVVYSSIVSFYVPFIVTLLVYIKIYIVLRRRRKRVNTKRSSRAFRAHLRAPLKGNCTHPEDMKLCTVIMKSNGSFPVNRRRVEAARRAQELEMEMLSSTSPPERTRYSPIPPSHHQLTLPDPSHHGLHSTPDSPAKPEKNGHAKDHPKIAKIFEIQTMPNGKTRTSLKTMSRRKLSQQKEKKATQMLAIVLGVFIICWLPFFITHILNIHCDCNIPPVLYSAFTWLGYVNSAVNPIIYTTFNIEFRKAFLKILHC
#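 Agonist mode: compounds alone added to overnight-plated D2 PathHunter cells for 90 min at 37 C, with 57 uM final dopamine (EC100) defining full response. Beta-arrestin recruitment detected by chemiluminescent reagent, read after 1 h at ambient temperature.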
# TRPML1 blocker – human mucolipin-1 channel inhibition; Q9GZU1; TRPML1-inducible cells, Ca2+ dye fluorescence, FDSS; hits give low values; inhibition of EC80 agonist-evoked calcium signal; activity change, negative = inhibition, % (no concentration beside the values); 0.02% of 390,000 active; AID 624415; in the data active means activity change below about -50%; inconclusive means about -30% to -50%; inactive means above about -30%;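 note: stimulus is agonist 54-4 at its EC80 concentration; % is set by controls: 0 for no effect and ±100 for the full control effect; compound concentration not given in the record; the text of the record puts the active cut at -80%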
#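 Calcium fluorescence in TRPML1-DL cells induced overnight with Tet: a 110 s read after compound pin addition, then a 110 s antagonist read after challenge with 54-4 at 4 uM final (EC80).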
# CtBP-E1A blk – blocks the CtBP interaction with E1A | AID 651724 | AlphaScreen GST-E1A/His-CtBP binding, 1536-well; hits give low values; control for the full effect not named in the record | activity change, % (concentration not given with the values) | 0.49% of 340,000 active; in the data active means activity change below about -65%; inconclusive means about -30% to -65%; inactive means above about -30%; note: % is set by controls: 0 for no effect and ±100 for the full control effect
#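 Homogeneous bead-based format: GST-tagged E1A captured on glutathione donor beads, His-tagged CtBP on nickel acceptor beads; compounds precede bead addition by 2 h at 37 °C.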
# Six1-Eya2 blk – inhibitors of human Six1/Eya2 interaction | activity change, % (concentration not given with the values) | AID 651725 | Q15475+O00167 | 0.56% of 360,000 active | AlphaScreen GST-Six1/His-Eya2 binding, biochemical; hits give low values; control for the full effect not named in the record; in the data active = activity change below about -65%; inconclusive = about -30% to -65%; inactive = above about -30%; note: % is set by controls: 0 for no effect and ±100 for the full control effect
#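 Compounds are tested against tagged Six1 and Eya2 proteins bridged by glutathione donor and nickel acceptor beads; after a one-hour incubation at 37 °C without light, AlphaScreen emission is recorded.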
# PINK1 modulator – changes PINK1 expression. Potency, µM (top dose mostly 76.6 µM), for the others: at the top dose activation (PINK1 increase), actives largely listed as activators. 0.2% of 410,000 active. PINK1 immunofluorescence, high-content cytometry, 24 h; active = well fitted activation curve with a large enough effect; inconclusive = small, poorly fitted or top-dose-only effect; inactive = flat fitted curve, though single readings scatter; cell line not stated here;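 note: potency is the fitted concentration of half-maximal effect; % of control where 0% means no effect; nearly all actives have a fitted effect of over 65% in size; a mitochondrial uncoupler was the plate control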
#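 Fluorescence from anti-PINK1 antibody, together with nuclear and cell stains, was scanned on a laser-scanning cytometer. Before staining, stable-line cells were incubated 24 hours with compounds at 5 concentrations; primary antibody 12 h at 10 degrees C.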
# Active calls of the source: *; ? = inconclusive; · = no result given; & = joins results of further samples; [ ] = remark or other dose.
# Values run as follows: CtBP-E1A blk	Six1-Eya2 blk	TRPML1 blocker	PINK1 modulator	D2 agonist	TRPML1 ag
(1) CCc1nnc(NC(=O)C(NC(=O)c2ccccc2Cl)C(C)C)s1 (stereo not given)
  0.4	20.7	-18.1	0.8%	-7.3	-0.3
(2) COc1cc(C2Nc3ccccc3-c3cc(C)nn32)ccc1O (stereo not given)
  ·	·	-1.0	3.5%	·	0.0
(3) O=C(Nc1ccc(N2CCN(C(=O)c3cccs3)CC2)cc1)c1ccc(Br)o1
  -5.6	-13.2	16.1	-0.4%	5.1	-0.2
(4) CC(C)N(CC(N)=O)c1ccc(S(=O)(=O)N2CCCC2)cn1
  -5.7	1.2	-2.9	-0.4%	-1.6	-0.6
(5) CSCCC(NS(=O)(=O)c1ccc2c(c1)oc(=O)n2C)C(=O)N1CCN(c2cccc(Cl)c2)CC1 (stereo not given)
  ·	·	-2.2	1.0%	·	1.6
(6) Cc1cc2ccccc2cc(C)c1=O
  2.3	6.1	-15.7	0.9%	-0.9	1.2
(7) CN(C)c1ccc(C(=S)NCc2ccco2)cc1
  -5.8	-4.7	24.8	3.6%	0.6	0.2
(8) FC(F)(F)c1nc(N2CCCC2)ncc1-c1nnnn1-c1ccccc1
  12.2	11.7	-9.8	7.1%	0.0	52.0*
(9) CC1CCCCC1NC(=O)CSC1=Nc2ccccc2C2CC=NN12 (stereo not given)
  6.9	0.0	9.4	2.5%	-2.1	-0.7
(10) Cc1ccc(Cn2ncc3c(NCCN(C)C)ncnc32)cc1
  ·	-0.8	6.4	-0.8%	-2.0	0.5
(11) Cc1c(NC(=O)c2cc3ccccc3oc2=O)c(=O)n(-c2ccccc2)n1C
  -2.8	3.2	-1.8	·	1.0	0.3
(12) COCCNCC(=O)Nc1ccc(C)c(S(=O)(=O)N2CCCCC2)c1
  1.7	-2.4	-0.4	-1.7%	2.3	0.0
(13) CCC1CCCCN1CCCNC(=O)c1c(O)nc2cc(C)ccn2c1=O (stereo not given)
  -3.0	-0.1	8.0&18.0	-0.6%&1.2%	3.0	-0.3&-0.4
(14) CCn1ccc2cc(S(=O)(=O)N3CCC(C(=O)NCc4cccc(Cl)c4)CC3)ccc21
  ·	·	-1.2	1.2%	·	0.6
(15) C=CCNS(=O)(=O)c1ccc2c(c1)n(C)c(=O)n2C
  -0.1	-1.6	-14.6	3.3%	-0.5	-0.7
(16) Nc1nc(N)c2[nH]c(-c3ccccc3)nc2n1
  0.1	-17.7	1.3	2.7%	-5.0	0.7
(17) COc1cc(C)ccc1OCc1cc(C(=O)N2CCC(c3ccc(F)cc3)C2)no1 (stereo not given)
  ·	2.5	9.6	-0.5%	-0.6	1.3
(18) CC(=O)OC(C)(CCC(C)(OC(C)=O)C(C)=O)C(C)=O (stereo not given)
  5.3	13.4	5.5	1.9%	-2.8	-1.9
(19) Cc1ccc(CNC(=O)c2ccc(Cn3c(=O)c4ccccc4n(CC(=O)Nc4ccc(C)cc4C)c3=O)cc2)cc1
  ·	·	45.6	-0.2%	·	0.0
(20) COc1ccc(C2(C(=O)NCc3ccco3)CCCC2)cc1OC
  4.9	2.5	-2.9	1.5%	-0.8	0.7
(21) COc1cccc(C2CC(C(F)(F)F)n3ncc(C(=O)NCC4CCCO4)c3N2)c1 (stereo not given)
  2.1	-1.7	-8.7	1.6%[38.3 µM]	-0.7	-0.3
(22) CC1(Cc2cc(Cl)ccc2C(F)(F)F)C(=O)Nc2ccc(-c3ccc(F)c(Cl)c3)cc21 (stereo not given)
  3.5	3.4	·	-1.0%	-5.0	-0.5
(23) S=c1[nH]nc(C2COc3ccccc3O2)o1 (stereo not given)
  36.6	31.3	-5.1	3.3%	-1.5	-0.1
(24) Cc1noc(N)c1C(=O)Nc1ccc(F)cc1
  9.4	0.9	-2.6	-1.4%	-2.3	-0.9
(25) COc1cccc(/C=N/NC(=O)CCn2c3ccccc3c3ccccc32)c1
  2.9	6.2	-13.0	16.4%	-3.0	0.3
(26) C/C(=N\NC(=O)Cc1c(Cl)cccc1Cl)c1cccnc1
  28.9	-2.0	12.0	1.4%	-2.6	-0.2
(27) COc1ccc(-c2cc(C(=O)Nc3sc4c(c3C#N)CCCC4)no2)cc1OC
  ·	·	-0.9	1.5%	·	-0.9
(28) COc1ccc(Cl)cc1N1C(=O)/C(=C\c2sccc2C)N=C1SCC(=O)NC1CC1
  24.2	2.2	-3.1	?	-3.5	0.2
(29) CC(C)Nc1nc(NC(C)C)nc(NS(=O)(=O)c2ccc(N)cc2)n1
  -8.1	-1.9	-10.5	·	-1.0	0.0
(30) Cc1ccc(N2C(=O)C(CN3CCCCC3)C2c2ccccc2)cc1 (stereo not given)
  0.4	2.1	32.0	6.3%	-5.8	-0.3
(31) O=C(Cc1cc(=O)[nH]c(=O)[nH]1)NCC1CCCO1 (stereo not given)
  12.2	3.9	-17.9	0.8%	-1.3	-0.3
(32) O=C(Oc1c(CN2CCOCC2)cc(Cl)c2cccnc12)c1ccccc1Cl
  -91.2*	-93.2*	15.5	1.5%	-8.2	0.0
(33) CC1=NN(C(C#N)c2cccc([N+](=O)[O-])c2)C(C)(C)C1 (stereo not given)
  15.5	4.1	-11.2	1.4%	-4.4	0.0
(34) COc1ccc([N+](=O)[O-])cc1NC(c1nnc(-c2ccccc2)o1)c1ccccc1F (stereo not given)
  ·	·	3.3	22.0%	·	3.1
(35) O=c1c2c(ncn2C2CCCC2)n(Cc2ccccc2)c(=O)n1CCOc1ccc(Br)cc1
  5.1	-2.8	-15.5	5.0%	-1.4	1.0
(36) Cc1ccc(C)c(N(C(=O)CNC(=O)c2ccco2)C(C(=O)NCC2CCCO2)c2ccccc2)c1 (stereo not given)
  -21.4	7.0	-12.1	0.7%	8.7	1.6
(37) COc1ccc(CCNS(=O)(=O)c2c(C)nc3sccn3c2=O)cc1OC
  ·	·	-19.2	1.5%	·	0.4
(38) Cc1nc(SC2C=CS(=O)(=O)C2)n[nH]1 (stereo not given)
  12.3	3.8	28.5	0.2%[38.3 µM]	-3.8	-0.2
(39) Cc1ccsc1/C=N/NC(=O)c1ccc([N+](=O)[O-])cc1
  -6.1	8.1	-4.7	7.0%	0.6	-1.0
(40) CCC(Oc1ccc(Cl)cc1)C(=O)N1CC(=O)Nc2ccccc21 (stereo not given)
  0.0	1.9	10.3	2.1%	-4.3	1.0
(41) COc1ccccc1C1C2C(=O)N(c3ccccc3)C(=O)C2ON1c1ccccc1 (stereo not given)
  3.9	-2.1	-6.4	4.9%	1.0	-0.4
(42) CCN(C[C@H]1N[C@@](CC)(C(=O)OC)[C@H]2C(=O)N(Cc3ccccc3)C(=O)[C@@H]12)C(=O)c1ccc(C(C)(C)C)cc1
  0.4	-1.2	4.6	-2.2%	?	1.9
(43) CCN(CC)S(=O)(=O)c1ccc(NC(=O)c2ccc3c(=O)n4c(nc3c2)CCCCC4)cc1
  ·	·	-5.7	-0.4%	·	0.3
(44) CC(Sc1nc(-c2ccccc2)cc(C(F)(F)F)n1)C(=O)N1CCCCC1 (stereo not given)
  1.2	15.1	21.7	-1.3%	-1.0	0.6
(45) O=C(CN(Cc1ccco1)C(=O)c1cccc(F)c1)Nc1ccccc1C(F)(F)F
  -20.0	-1.7	4.0	0.3%	-1.7	3.1

# Looked up above:
# `O=C(CN(Cc1ccco1)C(=O)c1cccc(F)c1)Nc1ccccc1C(F)(F)F` in Six1-Eya2 blk = -1.7
# `CCN(CC)S(=O)(=O)c1ccc(NC(=O)c2ccc3c(=O)n4c(nc3c2)CCCCC4)cc1` in TRPML1 ag = 0.3
# `Cc1nc(SC2C=CS(=O)(=O)C2)n[nH]1` (stereo not given) in D2 agonist = -3.8

# (listing goes on)
# Values run as follows: CtBP-E1A blk	Six1-Eya2 blk	TRPML1 blocker	PINK1 modulator	D2 agonist	TRPML1 ag
(46) CN(C)c1ccc(-c2ccnc3c2CC(C)(C(=O)Nc2cccc(C(F)(F)F)c2)O3)cc1 (stereo not given)
  -6.6	-2.0	1.3	4.4%	-0.5	-0.8
(47) CC(C)Oc1ccc(C(=O)OCC(=O)c2ccc[nH]2)cc1
  6.0	0.0	-9.3	3.3%	-1.4	0.9
(48) COc1cccc(-c2nc(-c3ccc(NC(=O)Cc4ccccc4OC)cc3)no2)c1
  -0.9	-20.5	-3.2	-1.4%	0.4	0.9
(49) COc1cccc(-c2nnc(SCc3ccccn3)n2C)c1
  -5.9	-1.1	27.2	-2.3%	1.7	4.2
(50) CC(=O)c1ccccc1NS(=O)(=O)c1cccc2nonc12
  2.4	-8.3	-5.1	?	-6.3	0.4
(51) CN(Cc1ccc(Cl)c(Cl)c1)C(=O)c1cccc(S(=O)(=O)N2CCN(Cc3ccccc3)CC2)c1
  -11.5	-9.0	-28.7	-1.9%	8.6	-0.7
(52) COc1ccc(N2CCN(C(=O)C(Cc3ccccc3)NC(=O)c3ccccc3)CC2)cc1 (stereo not given)
  -27.9	-22.9	-4.0	1.5%	2.4	0.0
(53) CCOc1ccccc1NC(=O)CC1(CC(=O)N2CCOCC2)CCCC1
  0.5	-2.1	-12.4	0.0%	-3.4	-0.7
(54) Cc1cc(=O)oc2cc(NC(=O)COc3ccccc3[N+](=O)[O-])ccc12
  ·	18.0	-14.5	0.5%	-1.4	-0.6
(55) CSc1cccc(NC(=O)Nc2ccccc2)c1
  -2.3	3.4	-11.3	-0.5%	-2.1	1.4
(56) CCOc1cc(C(=O)OCC(=O)c2c[nH]c3ccccc23)ccc1OCC(=O)N1CCOCC1
  1.1	-0.5	-2.7	-2.3%	-2.9	2.4

# By substructure: the compounds so far containing fluorine.
# Values run as follows: CtBP-E1A blk	Six1-Eya2 blk	TRPML1 blocker	PINK1 modulator	D2 agonist	TRPML1 ag
(8) FC(F)(F)c1nc(N2CCCC2)ncc1-c1nnnn1-c1ccccc1
  12.2	11.7	-9.8	7.1%	0.0	52.0*
(17) COc1cc(C)ccc1OCc1cc(C(=O)N2CCC(c3ccc(F)cc3)C2)no1 (stereo not given)
  ·	2.5	9.6	-0.5%	-0.6	1.3
(21) COc1cccc(C2CC(C(F)(F)F)n3ncc(C(=O)NCC4CCCO4)c3N2)c1 (stereo not given)
  2.1	-1.7	-8.7	1.6%[38.3 µM]	-0.7	-0.3
(22) CC1(Cc2cc(Cl)ccc2C(F)(F)F)C(=O)Nc2ccc(-c3ccc(F)c(Cl)c3)cc21 (stereo not given)
  3.5	3.4	·	-1.0%	-5.0	-0.5
(24) Cc1noc(N)c1C(=O)Nc1ccc(F)cc1
  9.4	0.9	-2.6	-1.4%	-2.3	-0.9
(34) COc1ccc([N+](=O)[O-])cc1NC(c1nnc(-c2ccccc2)o1)c1ccccc1F (stereo not given)
  ·	·	3.3	22.0%	·	3.1
(44) CC(Sc1nc(-c2ccccc2)cc(C(F)(F)F)n1)C(=O)N1CCCCC1 (stereo not given)
  1.2	15.1	21.7	-1.3%	-1.0	0.6
(45) O=C(CN(Cc1ccco1)C(=O)c1cccc(F)c1)Nc1ccccc1C(F)(F)F
  -20.0	-1.7	4.0	0.3%	-1.7	3.1
(46) CN(C)c1ccc(-c2ccnc3c2CC(C)(C(=O)Nc2cccc(C(F)(F)F)c2)O3)cc1 (stereo not given)
  -6.6	-2.0	1.3	4.4%	-0.5	-0.8
